D2 PAM: positive allosteric modulators of human D2 dopamine receptor; AID 624464; DiscoveRx D2 beta-arrestin cells, luminescence, 90 min; 100% = 57 uM dopamine signal; potentiation, % (no concentration beside the values); 360,000 tested, 0.23% active; active = potentiation of 50% or more; inconclusive = 30% to 50%; inactive = 30% or less;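 also: compound concentration not given in the record; tested on top of an EC20 dose of dopamine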
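PathHunter beta-arrestin assay in DiscoveRx D2 cells. Compounds were added with an EC20 of dopamine (50 nM final) for 90 min at 37 deg C. Luminescence was read 1 h after detection reagent, with 57 uM dopamine as the EC100 control.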
PINK1 modulator: PINK1 expression modulation | 410,000 tested, 0.2% active | PINK1 immunofluorescence, high-content cytometry, 24 h | Potency, µM (titrated, usually from 76.6 µM), for the others: top-dose activation (PINK1 increase), most hits filed as activators; active = well fitted activation curve with a large enough effect; inconclusive = small, poorly fitted or top-dose-only effect; inactive = flat fitted curve, though single readings scatter; cell line not stated here;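 also: potency is read from the fitted curve at half-maximal effect; % of control where 0% means no effect; nearly all actives have a fitted effect of over 65% in size; a mitochondrial uncoupler was the plate control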
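Readout is PINK1 immunofluorescence, quantified alongside mitochondrial, cell and nuclear markers by laser-scanning microplate cytometry. Cells from a stable line were exposed to compound titrations (5 concentrations) for 24 hours, with CCCP controls.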
TRPML1 agonist: human mucolipin-1 channel agonism; TRPML1-expressing cells, Ca2+ dye fluorescence, FDSS; host cell line not named in the record; reference of the full effect not given here; activation, % (no concentration beside the values); 410,000 tested, 0.12% active; AID 624414; in the data active = activation above about 50%; inconclusive = about 30% to 50%; inactive = below about 30%; also: 0% is about no effect; the text of the record puts the active cut at 80%
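Tetracycline-induced TRPML1-DL cells are seeded and incubated overnight before loading with a no-wash Ca2+ dye and quencher. Agonist activity is taken from the 110 s fluorescence read following compound pin-transfer on an FDSS, before EC80 54-4 challenge.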
D2 agonist: agonists of human D2 dopamine receptor (beta-arrestin). DiscoveRx PathHunter D2 beta-arrestin, luminescence, 90 min; 100% = 57 uM dopamine signal. activation, % (test concentration not listed). 360,000 tested, 0.084% active; in the data active = activation above about 40%; inconclusive = about 15% to 40%; inactive = below about 15%; also: compound concentration not given in the record; the text of the record calls up to 30% inactive
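Agonist mode: compounds alone added to overnight-plated D2 PathHunter cells for 90 min at 37 C, with 57 uM final dopamine (EC100) defining full response. Beta-arrestin recruitment detected by chemiluminescent reagent, read after 1 h at ambient temperature.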
Six1-Eya2 inh: inhibitors of human Six1/Eya2 interaction; 360,000 tested, 0.56% active; AID 651725; AlphaScreen GST-Six1/His-Eya2 binding, biochemical; stronger effect = lower value; control for the full effect not named in the record; Q15475+O00167; activity change, % (concentration not given with the values); in the data active = activity change below about -65%; inconclusive = about -30% to -65%; inactive = above about -30%; also: % is scaled to controls: 0 for no effect and ±100 for the full control effect
Target sequence (O00167 whole entry, looked up): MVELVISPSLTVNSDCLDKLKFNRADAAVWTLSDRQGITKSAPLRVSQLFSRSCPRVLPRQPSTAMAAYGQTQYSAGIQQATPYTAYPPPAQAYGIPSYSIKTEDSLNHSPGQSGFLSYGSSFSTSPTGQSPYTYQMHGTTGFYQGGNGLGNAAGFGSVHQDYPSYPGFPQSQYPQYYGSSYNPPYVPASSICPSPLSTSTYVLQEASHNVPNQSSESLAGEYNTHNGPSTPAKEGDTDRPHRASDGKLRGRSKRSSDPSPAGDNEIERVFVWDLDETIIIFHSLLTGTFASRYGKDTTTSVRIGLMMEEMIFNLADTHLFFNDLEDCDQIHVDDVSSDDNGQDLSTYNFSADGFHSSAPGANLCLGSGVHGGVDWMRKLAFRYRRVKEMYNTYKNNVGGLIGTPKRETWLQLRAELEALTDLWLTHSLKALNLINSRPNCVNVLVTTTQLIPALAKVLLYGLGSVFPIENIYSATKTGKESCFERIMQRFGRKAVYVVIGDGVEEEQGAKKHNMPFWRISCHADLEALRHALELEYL
Target sequence (Q15475 whole entry, looked up): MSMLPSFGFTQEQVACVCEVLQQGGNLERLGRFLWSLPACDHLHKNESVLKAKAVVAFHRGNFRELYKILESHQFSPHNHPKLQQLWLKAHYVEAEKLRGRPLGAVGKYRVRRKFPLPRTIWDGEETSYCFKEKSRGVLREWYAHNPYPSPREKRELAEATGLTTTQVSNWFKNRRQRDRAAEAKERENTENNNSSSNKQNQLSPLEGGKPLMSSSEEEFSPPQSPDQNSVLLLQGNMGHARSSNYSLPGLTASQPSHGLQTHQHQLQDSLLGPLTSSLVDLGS
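Six1/Eya2 binding was read as AlphaScreen signal after compounds were pinned into GST-Six1 plus His-tagged Eya2 (5X stock 250/500 nM) in pH 8.0 Tris/NaCl/TCEP buffer, beads added, then incubated 1 h, 37 C, dark.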
CtBP-E1A blk: inhibitors of CtBP/E1A interaction; AID 651724; activity change, % (no concentration beside the values); AlphaScreen GST-E1A/His-CtBP binding, 1536-well; stronger effect = lower value; control for the full effect not named in the record; 340,000 tested, 0.49% active; in the data active means activity change below about -65%; inconclusive means about -30% to -65%; inactive means above about -30%; also: % is scaled to controls: 0 for no effect and ±100 for the full control effect; compound concentration not given in the record
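AlphaScreen with 125 nM GST-E1A and 125 nM His-CtBP (5X stocks) in Tris pH 8.0, 300 mM NaCl, BSA, Tween 20, TCEP. Compounds preincubated 2 h at 37 deg C, then glutathione donor/nickel acceptor beads added for 1 h at 37 deg C in dark.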
An asterisk follows results filed as active; ? = inconclusive; / = not tested or not shown; & = joins results of further samples; [ ] = another dose, or the depositor's remark.

Sample of the layout:
Structure,D2 PAM,PINK1 modulator,TRPML1 agonist,D2 agonist,Six1-Eya2 inh,CtBP-E1A blk
O=C(Nc1cccc([N+](=O)[O-])c1)c1cc(S(=O)(=O)Nc2ccccn2)ccc1Cl,-7,-1.4%,-0.2,-1.9,-3,-2
Cc1ccc(-c2cc(N)n(-c3ccccc3)n2)cc1,0,4.9%,-0.6,-0.6,-2,0

The listing, previewed entries included:
Structure,D2 PAM,PINK1 modulator,TRPML1 agonist,D2 agonist,Six1-Eya2 inh,CtBP-E1A blk
O=C(Nc1cccc([N+](=O)[O-])c1)c1cc(S(=O)(=O)Nc2ccccn2)ccc1Cl,-7,-1.4%,-0.2,-1.9,-3,-2
Cc1ccc(-c2cc(N)n(-c3ccccc3)n2)cc1,0,4.9%,-0.6,-0.6,-2,0
Cc1nn(CC(=O)N2CC(=O)Nc3ccccc32)c(C)c1[N+](=O)[O-],-2,0.9%,-0.8,0.3,-4,-8
COC(=O)c1cccc(C(=O)N2CCC(CCC(=O)NCc3ccc(F)cc3)CC2)c1,-4,-1.1%,-1.1,0.8,0,2
CCCn1c2ccc(/C(C)=N\O)cc2c2cc(/C(C)=N/O)ccc21,8,7.6%,1.0,2.0,-11,-4
Cc1[nH]n(-c2ccccc2)c(=O)c1/C=N/N1CCOCC1,-8,1.2%,1.3,-3.1,1,0
Cc1nc(NC(=O)c2cncc(Br)c2)ccc1Br,-3,3.4%,0.3,-0.7,-2,-9
COc1cc(C=NOC(=O)Nc2ccccc2)cc(OC)c1OC,-2,1.8%,-0.4,0.8,1,-2
O=C(c1ccc(Cl)c(Cl)c1)N1CCC(=O)N(C(COCc2ccccc2)Cc2ccccc2)CC1 (stereo not drawn),-17,2.3%,-0.3,-2.5,-7,-8
O=S(=O)(Nc1ccc(S(=O)(=O)Nc2nccs2)cc1)c1ccc2c(c1)OCCO2,-15,1.7%,0.2,-1.3,5,-1
CCOC(=O)C1=CN(Cc2ccco2)S(=O)(=O)N(CC)C1c1cccc(OC)c1 (stereo not drawn),/,-0.3%,0.4,-1.5,-7,?
O=c1c2ccccc2[nH]c(=S)n1Cc1ccc2c(c1)OCO2,-4,11%,-0.6,4.9,3,-23
O=C(CN1C(=O)c2ccccc2S1(=O)=O)NC1CCCCCC1,-7,-0.3%,-0.3,-1.9,-2,5
CCOc1ncccc1C(=O)OCCN1C(=O)c2ccccc2C1=O,9,0.5%,1.0,-4.3,24,0
CC1CCCN(C2(O)C(=O)Nc3ccc(Br)cc32)C1 (stereo not drawn),-10,-0.5%,0.4,-4.2,5,/
COc1ccccc1NC(=O)CNC(=O)Cn1cnc2sc(C)c(C)c2c1=O,-2,0.7%,0.5,1.1,3,0
Cc1cc(C)c(C)c(S(=O)(=O)N2CCC(C(=O)NC3=NCCS3)CC2)c1C,-13,1.4%,-1.3,-2.8,21,/
COc1ccccc1CC1(C)C(=O)Nc2c(Cl)cccc21 (stereo not drawn),-12,2.7%,-0.9,-4.2,4,0
COc1ccc(C2CCCN2C(=O)Nc2ccc(Cl)cc2)cc1OC (stereo not drawn),-2,1.4%,-0.6,0.2,-4,0
CC1(C(=O)NS(=O)(=O)c2ccccc2)CCN1C(=O)Cc1ccc(-c2ccccc2)cc1 (stereo not drawn),-7,0.0%,-0.3,9.0,-4,1
COc1ccccc1CNC(=O)COC(=O)c1cccc(-n2cnnn2)c1,0,4.6%,0.3,1.2,2,3
CCN1CCN(CC(=O)Nc2ccc(Cl)c(Cl)c2)C(=O)C1=O,-6,0.7%,-0.6,-3.3,1,1
Cc1cccc(C)c1NC(=O)N1C2CCCC1CC(NC(=O)C(C)(C)C)C2 (stereo not drawn),-6,-1.2%,5.5,0.1,4,4
CC(C)c1ccc(S(=O)(=O)N2CCN(C(=O)CN3C(=O)NC(C)(c4ccccc4)C3=O)CC2)cc1 (stereo not drawn),-2,-0.2%,-0.7,1.8,-5,-1
Cc1cccc(-c2noc(CCCC(=O)Nc3ccc(C(N)=O)cc3)n2)c1,-6,-1.0%[38.3 µM],1.1,-1.6,2,-1
COCCCNC(=S)N(CCN(C)C)Cc1cc2cc3c(cc2[nH]c1=O)OCCO3,2,-0.4%,-0.3,-1.2,1,8
CC(=O)c1ccc(OCCn2cnc3ccccc32)cc1,-19,1.0%,-0.6,-1.0,7,1
CC(NC1CCCC1)c1ccccc1 (stereo not drawn),-5,-0.5%,-1.3,-6.9,6,5
Cc1ccc(SCc2c(C(=O)N/N=C/c3ccco3)nnn2-c2nonc2N)cc1,-10,6.3%,0.2,-3.3,4,-2
CSc1ncnc2c1ncn2CCCNCCc1ccccn1,/,0.7%,/,0.7,3,4
O=S(=O)(NCC(c1ccco1)N1CCN(c2ccccc2F)CC1)c1ccc(F)cc1 (stereo not drawn),-7,0.5%,3.3,0.0,-6,2
COc1ccc(N(C(=O)c2ccco2)C(C(=O)NC2CCCC2)c2ccccc2)cc1 (stereo not drawn),-7,1.3%,-0.6,-4.7,-2,-2
CCOc1c([N+](=O)[O-])cc2c(C)c(C(=O)N3CCN(C)CC3)oc2c1OCC,-6,3.7%,1.7,0.0,-2,-2
COc1ccc(/C=C/C(=O)Nc2ccc(-n3nncc3-c3ccc(OC)c(OC)c3)cc2)cc1OC,25,3.6%,0.3,6.1,-10,-8
O=C(NCCO)C(=O)NCC1OCCCN1S(=O)(=O)c1cccs1 (stereo not drawn),-11,-0.4%,0.0,-2.0,-3,-6
CN(CC(=O)O)S(=O)(=O)c1cc(Cl)ccc1Cl,6,-1.4%[38.3 µM],-0.1,-3.7,4,12
CCCC(=O)N(c1ccc2oc(C)c(C(C)=O)c2c1)S(=O)(=O)c1ccc(C(=O)O)cc1,-1,3.0%,0.3,-3.3,10,-1
CCc1ccc(C2CC(c3ccc(C)cc3)Nc3nc(N)nn32)cc1 (stereo not drawn),-2,8.4%,2.8,-7.0,4,-2
Cc1ccccc1NC(=O)N1CCCC(c2nc(-c3ccc(C(C)C)cc3)no2)C1 (stereo not drawn),-12,0.2%[38.3 µM],1.2,-3.1,-2,7
COc1ccccc1-c1noc(-c2cccnc2)n1,-2,-1.6%,3.9,-1.0,5,-2
O=C1O[C@@H](c2ccccc2)C[C@@H](O)C(=O)CCCCc2ccccc21,/,-0.5%,0.0,/,-1,1
CS(=O)(=O)N1CCN(C(=O)Cc2ccc([N+](=O)[O-])cc2)CC1,3,0.8%,0.4,1.4,1,-10
S=C(NCc1ccco1)Nc1cccc(Cl)c1,-4,?,0.6,-0.9,-15,2
CCc1ccc(NC(=O)N2CCN(c3ccccc3)CC2)cc1,-8,-1.7%,0.0,-3.0,-7,-5
Cc1cc(NC(=O)CSc2nc3c(c(=O)n2Cc2ccccc2)SC(C)C3)no1 (stereo not drawn),-6,0.3%,0.1,-3.3,-5,-6
CCOC(=O)c1c(C)oc2ccc(OC(=O)N3CCOCC3)cc12,-9,15%[38.3 µM],-0.3,-1.4,3,38
CCCC(=O)Nn1cnc2c(c1=O)C1(CCCCC1)Cc1ccccc1-2,-7,1.6%,0.1,-4.9,-3,1
O=S(=O)(O)c1ccc(NN=Cc2ccccc2O)cc1,-6,0.0%,0.1,-0.2,-12,0
CCN(CCCNC(=O)CCn1c(=O)[nH]c2ccccc2c1=O)c1cccc(C)c1,-3,-2.8%,4.2,1.0,-8,-13
C[C@@H]1NC(=O)[C@H](CCC(=O)O)NC(=O)c2cc([N+](=O)[O-])cc(F)c2NCCC[C@@H](C(N)=O)NC1=O,-1,-0.3%,-0.1,-0.9,0,1
Cc1ccc(NC(=O)NNC(=O)C2CC(c3cccs3)=NO2)cc1 (stereo not drawn),-8,-0.1%,-0.6,-2.8,3,0
CC(=O)c1cccc(NC(=O)c2ccc(C)o2)c1,-12,-1.6%,0.0,-0.9,1,/
CCOC(=O)C(=O)N/N=C/c1ccco1,-5,18%,-0.2,-5.5,1,5
CCOC(=O)CC1C(C(=O)OCC)ON2OC(C(=O)OC)C(C(=O)OCC)C12 (stereo not drawn),0,-0.5%,0.4,1.0,6,-4
CSc1nc2sccc2c(=O)[nH]1,-6,2.9%,-0.7,0.0,1,3
CCCN(CCC)CCCNC(=O)Cn1cnc2sc(C)c(S(=O)(=O)N3CCCCC3)c2c1=O,-3,0.8%&-0.4%,0.6&1.2,0.4,18,-8

Part of the list above, with each value named.
> CCN(CCCNC(=O)CCn1c(=O)[nH]c2ccccc2c1=O)c1cccc(C)c1
  D2 PAM: -3	PINK1 modulator: -2.8%	TRPML1 agonist: 4.2	D2 agonist: 1.0	Six1-Eya2 inh: -8	CtBP-E1A blk: -13
> C[C@@H]1NC(=O)[C@H](CCC(=O)O)NC(=O)c2cc([N+](=O)[O-])cc(F)c2NCCC[C@@H](C(N)=O)NC1=O
  D2 PAM: -1	PINK1 modulator: -0.3%	TRPML1 agonist: -0.1	D2 agonist: -0.9	Six1-Eya2 inh: 0	CtBP-E1A blk: 1
> Cc1ccc(NC(=O)NNC(=O)C2CC(c3cccs3)=NO2)cc1 (stereo not drawn)
  D2 PAM: -8	PINK1 modulator: -0.1%	TRPML1 agonist: -0.6	D2 agonist: -2.8	Six1-Eya2 inh: 3	CtBP-E1A blk: 0
> CC(=O)c1cccc(NC(=O)c2ccc(C)o2)c1
  D2 PAM: -12	PINK1 modulator: -1.6%	TRPML1 agonist: 0.0	D2 agonist: -0.9	Six1-Eya2 inh: 1	CtBP-E1A blk: /

New compounds follow.
Structure,D2 PAM,PINK1 modulator,TRPML1 agonist,D2 agonist,Six1-Eya2 inh,CtBP-E1A blk
Cc1ccccc1C(=O)NCC(=O)NNC(=O)c1cccc(Cl)c1,-1,4.2%,0.0,-2.7,8,/
CCOc1ccccc1NC(=O)CN1C(=O)C(=O)N(Cc2ccco2)C1=O,-12,2.2%,-0.9,-1.2,-6,-1
CCSc1nnnn1-c1ccccc1,4,-0.2%,-1.1,-1.7,9,10
O=C(NNc1ccc([N+](=O)[O-])cc1)c1ccccc1Cl,-7,0.5%,0.9,-6.2,4,/
O=c1c2ccccc2nnn1CSc1nc2cc(Cl)ccc2c(=O)n1Cc1ccco1,-15,/,0.2,-0.1,-3,-16
COc1ccc(CCNC(=O)CC2Nc3ccccc3NC2=O)cc1 (stereo not drawn),-15,-0.8%,2.3,-0.4,-7,-12
Cc1ccc(S(=O)(=O)NN2C(=O)c3ccccc3NC2c2ccco2)cc1 (stereo not drawn),2,-2.7%,0.0,0.8,-14,-12
C=CCNC(=O)/C(C#N)=C/c1cc(Br)ccc1OC,-10,1.2%,1.8,5.5,-4,-2
O=C(COC(=O)c1ccc2ncsc2c1)Nc1ccc(Cl)cc1,-2,1.3%,2.0,0.6,?,-3
CCN1C(=O)[C@@H]2C(C(=O)c3cnccn3)=NN[C@@H]2C1=O,-1,-0.4%,1.3,0.4,0,-20
CCOC(=O)c1c(C)n(OCc2ccccc2)c2ccc3c(no[n+]3[O-])c12,-1,/,1.9,-3.3,-8,-6
Cn1c(=O)cc(SCC(=O)NCCN2CCN(c3ccccc3F)CC2)c2cc(Cl)ccc21,-41,-2.2%,0.8,-1.5,-4,-2
